Source: PubChem
GIV-Gai inh = blocks GIV peptide binding to rat Galpha-i3 | AID 1224905 | Galpha-i3/FITC-GIV peptide fluorescence polarization, 90 min; active compounds read low; scaled: aluminum fluoride 0%, vehicle 100% | 0.42% of 210,000 active | percent of control (FP), % (test concentration not listed) | P08753;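 active = replicate mean at 85% of control or lower, very high polarization wells dropped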;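 also: lower values mean more displacement of the GIV peptide from Galpha-i3; wells of about 15 µL received 100 nL stock; the first replicate is given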
Target sequence (P08753 whole entry, looked up): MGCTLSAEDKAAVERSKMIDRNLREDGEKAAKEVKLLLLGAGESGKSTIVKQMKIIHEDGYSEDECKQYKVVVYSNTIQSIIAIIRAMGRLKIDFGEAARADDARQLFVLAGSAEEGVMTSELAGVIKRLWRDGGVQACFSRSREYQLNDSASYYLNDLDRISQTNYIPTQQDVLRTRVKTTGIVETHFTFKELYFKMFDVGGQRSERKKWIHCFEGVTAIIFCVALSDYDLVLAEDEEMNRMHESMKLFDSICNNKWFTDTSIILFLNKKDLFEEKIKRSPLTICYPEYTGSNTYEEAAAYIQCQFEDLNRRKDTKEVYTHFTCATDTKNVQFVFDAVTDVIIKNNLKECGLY
Active calls of the source: *.

GIV-Gai inh	Molecule
112	Cc1c(N(CC(=O)O)S(=O)(=O)c2ccccc2)c(=O)n(-c2ccccc2)n1C
99	CCc1ccc(NS(=O)(=O)c2c(C)sc(C)c2-c2cc(C)[nH]n2)cc1
116	CCCn1cnc2sc(C(=O)N3c4ccc(F)cc4CCC3C)c(C)c2c1=O (stereo not given)
100	CC(C)CNC(=O)CCn1c(N2CCCC2)nc2ccsc2c1=O
105	O=[N+]([O-])c1ccc(N2CCN(c3ncnc4c3cnn4-c3ccccc3)CC2)cc1
108	CC(=O)C1=NN(c2ccc(C)cc2)C2(S1)c1ccccc1C(c1ccc(C(C)(C)C)cc1)=NN2c1ccccc1 (stereo not given)
102	CS(=O)(=O)c1nc2ccc(NS(=O)(=O)c3cc(F)ccc3F)cc2s1
102	CN1C(=O)COc2cc(-c3noc(C(=O)NCc4ccccn4)n3)ccc21
112	Cc1cccc2c1[nH]c1nc(SCC(=O)O)nnc12
111	Cc1sc2ncn(CC(=O)NCC(=O)N3CCN(c4ccc([N+](=O)[O-])cc4)CC3)c(=O)c2c1C
106	CCOC(=O)c1c(CSc2ccccc2)n(-c2ccccc2)c2cc(Br)c(O)cc12
119	O=C1C=C(c2ccccc2)C[C@H](c2cccs2)[C@H]1n1nnc2ccccc21
105	COc1ccc(C2C(C#N)=C(N)N(c3ccc([N+](=O)[O-])cc3)C3=C2C(=O)CCC3)cc1OC (stereo not given)
114	COc1ccc(-n2nnnc2SCc2nc(N)nc(N3CCOCC3)n2)cc1
111	CC(C)(C)c1ccc(C2Nc3ccccc3C(=O)N2c2ccc(Br)cc2)cc1 (stereo not given)

(next part)
GIV-Gai inh	Molecule
106	O=c1c2cn[nH]c2nc(SCc2nc(-c3ccccc3)no2)n1-c1ccccc1
117	CC(=O)n1c2ccc(F)cc2c2nc3ccccc3nc21
110	COc1cc(-c2c(C#N)c(N)nc(SCC(N)=O)c2C#N)cc(OC)c1OC
113	COc1cccc(N/C(SCc2cccc([N+](=O)[O-])c2)=C(/C#N)C(N)=O)c1
102	Cc1c(Cl)cccc1-n1c(SCC(=O)NCCc2ccc(S(N)(=O)=O)cc2)nc2n[nH]c(C)c2c1=N
105	COc1ccc(CNC(=O)c2cc3nc(-c4ccc([N+](=O)[O-])cc4)cc(C(F)(F)F)n3n2)cc1
101	O=C(COC(=O)c1ccc(N2C(=O)C3C4C=CC(C4)C3C2=O)cc1)c1ccc(Cl)c([N+](=O)[O-])c1 (stereo not given)
117	CCOc1ccc2c(c1)/C(=C1/SC(C(C)=O)=C(c3ccccc3)S1)C(=S)C(C)(C)N2C(=O)C(C)CC (stereo not given)
100	CN(CCCNC(=O)c1ccc(-c2ccc(N3CCCC3)nn2)cc1)c1ccccc1
101	C=CCNc1nc(Nc2ccc(F)cc2)nc(OC(C(F)(F)F)C(F)(F)F)n1
109	COc1ccc(Br)cc1C1=N/C(=C\c2cccc(OC)c2OC)C(=O)O1
99	Cc1ccccc1COc1ccccc1C1CC(=O)Nc2c1cnn2-c1ccc2nnc(C)n2n1 (stereo not given)
111	CCOC(=O)C1=C(CSc2nc3c(cc2C#N)CCC3)OC(N)=C(C#N)C1c1cccs1 (stereo not given)
101	COc1ccc(CCNC(=O)c2ccc(Cn3c(=S)[nH]c4cc(C(=O)O)ccc4c3=O)cc2)cc1OC
104	CN1CCN(C(=O)c2ccc3cccc(O)c3n2)CC1

Later entries
GIV-Gai inh	Molecule
97	O=C1CC(c2cccc(O)c2)c2cnn(-c3nc4ccccc4s3)c2N1 (stereo not given)
108	CCc1nc(-c2csc(S(=O)(=O)N3CCC(C(=O)NCc4ccccn4)CC3)c2)no1
110	COc1ccc(NS(=O)(=O)c2cc(S(=O)(=O)c3ccc(OC)cc3)c3c4c(cccc24)C(=O)N3)cc1
108	CCN(Cc1ccc(Cl)cc1)Cc1cc(=O)n2nc(C(C)(C)C)sc2n1
99	COc1ccc(Cl)cc1S(=O)(=O)N(C)CC1(C)CCOCC1
100	CC1CCC2(CC1)Nc1ccccc1NC2=NCc1ccc(C(F)(F)F)cc1 (stereo not given)
110	O=C(Nc1cc(C(=O)N2CC=C(c3ccccc3)CC2)ccc1N1CC2CC(C1)c1cccc(=O)n1C2)c1ccc(F)cc1 (stereo not given)
106	CCSc1nc2c(c(=O)[nH]1)C(C(=O)Nc1cccc(C)c1)CC(=O)N2 (stereo not given)
116	CC(=O)C1=NN(c2cccc(Cl)c2C)C2(S1)c1ccccc1C(c1cc(C)ccc1C)=NN2c1ccccc1 (stereo not given)
100	CC(C)(C)c1ccc(Cn2nc3c(S(=O)(=O)N4CCOCC4)cccn3c2=O)cc1
104	CCOc1ccc(-n2c(=S)sc3c2nc(SCC#N)n2c4ccccc4nc32)cc1
100	COC(=O)c1sc(NC(=O)CSc2nc(C)nc3sc4c(c23)CCC4)c(C(=O)OC)c1C
111	Cn1cc(SCC(=O)N2N=C(c3cccs3)CC2c2ccc(F)cc2)c2ccccc21 (stereo not given)
99	Cc1cc(C)nc(NS(=O)(=O)c2ccc(NC(=O)c3cc(Cl)sc3Cl)cc2)n1
108	O=C(CN1CCCCCC1)N1c2ccccc2C=Cc2ccccc21

(next part)
GIV-Gai inh	Molecule
106	COC(=O)C1=C(N)n2c(s/c(=C\c3ccccc3)c2=O)=C(C#N)C1c1ccccc1 (stereo not given)
101	Cc1nnc2ccc(-n3ncc4c3NC(=O)CC4c3ccc(OCC(C)C)cc3)nn12 (stereo not given)
113	CC(C)COc1ccc(C2Nc3ccccc3C(=O)N2c2ccc3ccccc3c2)cc1 (stereo not given)
3.5*	Cn1c(=O)c(NC2CCCCC2)c2c3c(cccc31)C(=O)c1ccccc1-2
106	O=C(NC1CCCCNC1=O)c1ccc(N2CC3CC(C2)c2cccc(=O)n2C3)c(NC(=O)c2ccccc2Cl)c1 (stereo not given)
101	COc1ccc(-c2cc(N3CCN(C(=O)NC(C)(C)C)CC3)ncn2)cc1OC
108	COC(=O)c1ccc(C2C(C#N)=C(N)Oc3n[nH]c(C45CC6CC(CC(C6)C4)C5)c32)cc1 (stereo not given)
104	CCCCCn1c(SCC(=O)c2ccc(Cl)cc2)nc2cc(C(=O)N3CCC(C(N)=O)CC3)ccc2c1=O
105	COc1ccc2c(c1)-c1c(ssc1=Nc1ccccc1)C(C)(C)N2
103	N#CC1=C(N2CCOCC2)N=P(c2ccccc2)(c2ccccc2)N=C1c1ccccc1
110	COc1cccc(N2CCN(S(=O)(=O)c3cc(-c4nnc(C5CCC5)o4)co3)CC2)c1
97	COc1cccc(N2CCN(C(=O)c3cc(S(=O)(=O)N4CCCC4)ccc3Cl)CC2)c1
101	COc1ccccc1-c1noc(CCc2nnc3ccc(N4CCN(Cc5ccccc5)CC4)nn23)n1
96	Cc1ccccc1C1(c2ccccc2C)SC2(SC(C(=O)c3ccccc3)=NN2c2ccccc2)c2ccccc21 (stereo not given)
101	O=C1CC(c2noc(C3CC3)n2)CN1c1ccc(F)cc1 (stereo not given)

5 neighbouring entries already listed, quoted:
GIV-Gai inh	Molecule
108	COC(=O)c1ccc(C2C(C#N)=C(N)Oc3n[nH]c(C45CC6CC(CC(C6)C4)C5)c32)cc1 (stereo not given)
104	CCCCCn1c(SCC(=O)c2ccc(Cl)cc2)nc2cc(C(=O)N3CCC(C(N)=O)CC3)ccc2c1=O
105	COc1ccc2c(c1)-c1c(ssc1=Nc1ccccc1)C(C)(C)N2
103	N#CC1=C(N2CCOCC2)N=P(c2ccccc2)(c2ccccc2)N=C1c1ccccc1
110	COc1cccc(N2CCN(S(=O)(=O)c3cc(-c4nnc(C5CCC5)o4)co3)CC2)c1

Remaining list, next part:
GIV-Gai inh	Molecule
107	CCOc1ccccc1N1COc2ccc3c(C)cc(=O)oc3c2C1
183	CC1CCN(c2nc3ccccn3c(=O)c2/C=C2/SC(=S)N(C3CCCCC3)C2=O)CC1
110	C=CCN1C(=O)/C(=c2\sc3nc(-c4ccccc4OC(C)=O)nn3c2=O)c2ccccc21
99	Cc1ccc2c(c1)NC(=O)C(C(=O)N1CCCC1)O2 (stereo not given)
118	COc1ccc(N2CCN(c3ncnc4c3cnn4-c3ccccc3)CC2)cc1
112	CCOc1cccc2c1N(C(C)=O)C(C)(C)C1=C2C2(SC(C(=O)OC)=C(C(=O)OC)S2)C(C(=O)OC)=C(C(=O)OC)S1
106	COc1ccc(CCNC(=O)CCn2c(SCC(=O)NCCc3ccccc3)nc3ccccc3c2=O)cc1OC
105	Cc1ccc(CSc2nccc3c2ccn3CC(=O)NCCCN2CCCC2)cc1
102	COC(=O)c1cc(C2CC2)nc2c1c(=O)n(Cc1ccncc1)c(=O)n2-c1ccccc1
101	CC1CCC2(CC1)NCCCN=C2NC1CCCCCC1 (stereo not given)
102	COc1cccc(NC(=O)c2nc3nc(-c4ccc(F)cc4)cc(C(F)(F)F)n3n2)c1
108	CC1(C)Cc2nc(N)c(C(=O)O)cc2CO1
105	Cc1nn(-c2nc3ccccc3n2C)c2c1C(c1cc(F)ccc1F)CC(=O)N2 (stereo not given)
106	Cc1cccc(NC(=O)c2ccc3nnc(SCC(=O)Nc4ccc(F)cc4F)n3c2)c1
111	COc1ccc(/C=N/NC(=O)C2C(c3ccccc3)C(C(=O)N3CCOCC3)C2c2ccccc2)cc1OC (stereo not given)

Next section:
GIV-Gai inh	Molecule
98	Cc1cc(C)cc(NC(=O)N2CCCC2c2cc(C(C)C)no2)c1 (stereo not given)
98	CC(C)c1cc(C2CCCN2C(=O)c2cc3nc(C4CC4)cc(C(F)(F)F)n3n2)on1 (stereo not given)
111	O=C(COc1ccc(Br)cc1)Nc1cc(-c2nc3ncccc3o2)ccc1Cl
109	Cc1cccc(NC(=O)Nc2cccc(-c3nnc(-c4ccccc4)o3)c2)c1C
105	Cc1cc2c(N(C)C3CCCCC3)ncnc2s1
106	CCOc1ccc(N2C(=O)c3ccccc3NC2c2cccc(Br)c2)cc1 (stereo not given)
96	CC(C)(C)C(=O)NC1CCN(C(=O)C2CCCC2)C1 (stereo not given)
120	CC(=O)N1c2ccccc2CCc2ccc(NC(=O)CCC3CCCC3)cc21
105	CCOC(=O)N1CCC(NC(=O)CSc2nc3ccccc3n2S(=O)(=O)c2ccc(C)cc2)CC1
100	O=C(O)c1ccc2nc(-c3cccs3)c(-c3cccs3)nc2c1
104	Cc1cc(N2CCCCC2)nc(Nc2ccc(NC(=O)Nc3ccc(Cl)cc3)cc2)n1
107	CCCCN(C)CCNC(=O)c1ccc(Cn2c(=S)[nH]c3ccc(Br)cc3c2=O)cc1
102	COCCN1CC(C(=O)NCc2ccc3c(c2)OCO3)CC1=O (stereo not given)
118	COc1ccccc1-n1c(C)nc2cc(C(=O)NCc3ccc4c(c3)OCO4)ccc21
96	Cc1ccc(C(=O)N2CCN(Cc3cc(=O)n4nc(-c5ccc(C)cc5)sc4n3)CC2)cc1

More entries.
GIV-Gai inh	Molecule
111	COc1ccc2c(c1)-c1c(ssc1=Nc1ccccc1C)C(C)(C)N2
104	Cc1ccc(S(=O)(=O)Oc2ccc(C3(C)CC(C)(C)NC(=S)N3)c(OS(=O)(=O)c3ccc(C)cc3)c2)cc1 (stereo not given)
113	COc1ccc(O)c(C2=Nc3ccccc3N=C(c3ccc(C(C)(C)C)cc3)C2)c1
105	CC(=O)Nc1ccc(-c2noc(C3CCCN(C(=O)Cc4ccc(C)cc4)C3)n2)cc1 (stereo not given)
124	CCNC(=O)C(=O)Nc1ccc(Cl)c(C(F)(F)F)c1
104	COc1ccc2c(c1)-c1c(ssc1=S)C(C)(C)N2C(=O)c1ccccc1Cl
99	Nc1c(C(=O)Nc2nccs2)sc2nc3c(c(-c4ccc(Cl)cc4)c12)CCCCC3
102	CC(C)NC(=O)c1csc2c1CCCC2
106	O=C(NC1CCCC1)C1CCN(c2cncnc2N2CCOCC2)CC1
105	O=S(=O)(NC1CCCCCCC1)c1ccc(-c2ccno2)s1
105	Cc1ccc(S(=O)(=O)CC(=O)Nc2ccc(-c3nc4ccccc4o3)cc2)cc1
103	C1CCc2nnc(Cc3nnc4n3CCCCC4)n2CC1
102	O=C1CSC(c2cn(-c3ccccc3)nc2-c2cc3ccccc3oc2=O)N1CC1CCCO1 (stereo not given)
92	CN(CC1(C)CCOCC1)C(=O)NC1CCCCC1
104	CCc1cc(N2CCN(c3ccc(F)cc3)CC2)n2ncnc2n1

Of the compounds above, six have a nitro group on carbon:
GIV-Gai inh	Molecule
105	O=[N+]([O-])c1ccc(N2CCN(c3ncnc4c3cnn4-c3ccccc3)CC2)cc1
111	Cc1sc2ncn(CC(=O)NCC(=O)N3CCN(c4ccc([N+](=O)[O-])cc4)CC3)c(=O)c2c1C
105	COc1ccc(C2C(C#N)=C(N)N(c3ccc([N+](=O)[O-])cc3)C3=C2C(=O)CCC3)cc1OC (stereo not given)
113	COc1cccc(N/C(SCc2cccc([N+](=O)[O-])c2)=C(/C#N)C(N)=O)c1
105	COc1ccc(CNC(=O)c2cc3nc(-c4ccc([N+](=O)[O-])cc4)cc(C(F)(F)F)n3n2)cc1
101	O=C(COC(=O)c1ccc(N2C(=O)C3C4C=CC(C4)C3C2=O)cc1)c1ccc(Cl)c([N+](=O)[O-])c1 (stereo not given)

Printed as active in GIV-Gai inh (from the list above):
GIV-Gai inh	Molecule
3.5*	Cn1c(=O)c(NC2CCCCC2)c2c3c(cccc31)C(=O)c1ccccc1-2

(next part)
GIV-Gai inh	Molecule
111	NC(=O)c1nc(Nc2ccccc2)sc1NC(=O)Cc1nc(F)c(F)cc1F
98	CC(=O)Nc1ccc2nc(N3CCC(C(=O)NCCN4CCOCC4)CC3)cc(C)c2c1
108	c1ccc(-c2nc3c4c(-c5ccccc5)c(-c5ccccc5)oc4ncn3n2)cc1
106	COCCN(CCOC)c1ncnc2c1c(-c1ccccc1)cn2-c1ccc(Br)cc1
82*	CCOC(=O)C(Cc1ccc(O)cc1)NC1=CC(=O)C(=O)c2ccccc21 (stereo not given)
103	Cc1cccc(C2(c3cccc(C)c3)CC2C(=O)Nc2ccc(Cl)c(Cl)c2)c1 (stereo not given)
117	N#Cc1c(N)nc(SCC(=O)NCc2ccccc2)c(C#N)c1-c1ccc(F)cc1
110	CCC(=O)Nc1ccc(-c2cc(C(=O)NCc3ccccc3)c3ccccc3n2)cc1
104	O=[N+]([O-])c1ccc(-c2nc(N3CCCCCC3)c3ccccc3n2)cc1
108	COCCCNC(=O)CSc1nc(Nc2cc(OC)cc(OC)c2)c2ccccc2n1
102	O=C(CSc1nc2c(c(=O)n1-c1ccc(Br)cc1)SCC2)N1CCC(Cc2ccccc2)CC1

An excerpt; rates above refer to the full screens.
